Source: PubChem (National Center for Advancing Translational Sciences (NCATS))
VACV Venus inh = qHTS for Stage-Specific Inhibitors of Vaccinia Orthopoxvirus: Venus Reporter Primary qHTS; 0.46% of 330,000 active; Vaccinia virus Venus reporter expression, fluorescence; AID 720580, 2013; Potency, µM (highest dose often 36.5 µM), without a hit: top-dose activity change, negative = inhibition, most hits filed as inhibitors; active means well fitted inhibition curve with a large enough effect; inconclusive means small, poorly fitted or top-dose-only effect; inactive means no such curve, though single readings can be large or run the other way; tested in A549 cells; further: nearly all actives have a fitted effect of over 30% in size; inactives centre near -10
Vaccinia mCherry = qHTS for Stage-Specific Inhibitors of Vaccinia Orthopoxvirus: mCherry Reporter Primary qHTS. Potency, µM (titrated, usually from 36.5 µM), inactives show at the top dose activity change, negative = inhibition, most hits filed as inhibitors. 0.63% of 310,000 active. Vaccinia virus mCherry reporter infection, fluorescence; about a quarter of the inactives have no number; active = well fitted inhibition curve with a large enough effect; inconclusive = small, poorly fitted or top-dose-only effect; inactive = no such curve, though single readings can be large or run the other way; tested in A549 cells; further: nearly all actives have a fitted effect of over 35% in size; inactives centre near -10
Active calls of the source: *; i = inactive; ? = inconclusive; / = not tested or not shown; & = joins results of further samples; [ ] = remark or other dose. On the % scale 0 is the no-effect control and ±100 the full control effect; potency means the concentration at half of the fitted maximal effect.

SMILES	VACV Venus inh	Vaccinia mCherry
NNC(=O)c1ccncc1	?	-18%&-21%&-8%
CC(C)(C)C(=O)NC(CC(=O)O)c1ccccc1 (stereo unspecified)	-8%	i
O=C(CCl)NNC(=O)c1c(O)c2ccccc2[nH]c1=O	-29%	?
CCCC(=O)Nc1cc(-c2nc3ncccc3o2)ccc1Cl	-4%	i
O=C(NCCSc1ncc(-c2ccc(F)cc2)[nH]1)c1ccco1	1%	-2%
COC(=O)c1ccc(NC(=O)Nc2nnc(N(C)C3CCCCC3)s2)cc1	-9%	-1%
O=C1C[C@@H]2c3c(cccc3CN1Cc1ccccc1Cl)C[C@@H](O)[C@H]2O	-15%	i
Cc1cc(C)c(/C=C(\C#N)S(=O)(=O)c2ccccc2)[nH]1	6%	i
N#C/C(=C/c1cc(Cl)c(O)c(Cl)c1)C(=O)N1CCCCC1	-7%	-18%
O=C(Cn1nc(C(F)(F)F)c2c1CCCC2)Nc1ccc(Cl)cc1	?	?
NS(=O)(=O)c1ccc(N/N=C/C=C/c2ccccc2[N+](=O)[O-])cc1	-9%	?
CC(=O)Cc1nsc(Nc2ccc(Cl)cc2)n1	11%	-10%
CC(C)CCNC(=O)c1onc(CSc2nc3ccccc3[nH]2)c1C(=O)NCCC(C)C	-27%	-14%
Cc1cc2cc(CCNS(=O)(=O)c3ccc(F)cc3)c(=O)[nH]c2cc1C	?	?
O=C(Nc1ccc2c(c1)OCO2)c1ccc(NC2CC2)c([N+](=O)[O-])c1	?	?
COC(=O)CCC(=O)OC1(C)C(=O)C2=CN(Cc3ccc4c(c3)OCO4)C(c3ccc(OC)cc3)=CC2=C(Br)C1=O (stereo unspecified)	0%	-12%
CCCCc1ccc(S(=O)(=O)NC(=O)C2(C)CCN2C(=O)c2ccccc2)cc1 (stereo unspecified)	-2%	22%
CCOC(=O)N1CCC(NC(=O)c2cc3c(-c4ccc(OC)c(OC)c4)nn(C)c3s2)CC1	-1%	-11%
O=C(Nc1cccc(Cl)c1)c1nc[nH]c1C(=O)Nc1ccccc1F	?	1%
C=CCNC(=S)NNC(=O)COc1ccc2cc(Br)ccc2c1	-14%	i

Random excerpt: four compounds from above, in no set order.
SMILES	VACV Venus inh	Vaccinia mCherry
O=C1C[C@@H]2c3c(cccc3CN1Cc1ccccc1Cl)C[C@@H](O)[C@H]2O	-15%	i
O=C(Nc1cccc(Cl)c1)c1nc[nH]c1C(=O)Nc1ccccc1F	?	1%
C=CCNC(=S)NNC(=O)COc1ccc2cc(Br)ccc2c1	-14%	i
O=C(Cn1nc(C(F)(F)F)c2c1CCCC2)Nc1ccc(Cl)cc1	?	?

(cont.)
SMILES	VACV Venus inh	Vaccinia mCherry
Cc1c(C(=O)OCC2CCCCC2)[nH]c2c1C(=O)CC(c1ccc(Cl)cc1)C2 (stereo unspecified)	-1%	1%
CC1CC(=O)C=C(O)C1C(=O)OC(C)(C)C (stereo unspecified)	-14%	/
COCCNC(=S)N/N=C/c1c2ccccc2cc2ccccc12	-19%	?
Cn1c(=O)c2c(n3c4ccccc4nc13)NC(=O)CC2c1cccc(Cl)c1 (stereo unspecified)	4%	-9%
COc1cc2c(cc1OC)C(COc1ccc3c(C)cc(=O)oc3c1)N(C(=O)CC(C)C)CC2 (stereo unspecified)	5%	-9%
CC1(C)Cc2c(cnn2-c2ccccc2)-c2c1c1ccccc1n2CC(O)CBr (stereo unspecified)	?	/
Cc1ccccc1N(CC(=O)NC1CCCC1)C(=O)c1csnn1	-10%	i
Cc1ccc(F)cc1NC(=O)CCc1c(C)nn(-c2ccc(N3CCCCC3)nn2)c1C	-5%[7.34 µM]	-14%[7.34 µM]
COCCn1c(=NC(=O)c2cccs2)sc2cc(NC(C)=O)ccc21	1%	i
CCOC(=O)c1ccc(NC2Nc3cc(C)nn3S2)cc1 (stereo unspecified)	-13%	-17%
Cc1cc(=O)n(Cc2ccccc2)c2c1c(C)nn2-c1ccccc1	-4%	-7%
CCc1ccc(-n2nc(CO)c(C(=O)NCCc3ccccc3)n2)cc1	0%	4%
CCOc1ccc(S(=O)(=O)N2CCN(CC(O)COc3cccc([N+](=O)[O-])c3)CC2)cc1 (stereo unspecified)	?	-24%
COC(=O)c1ccc(Cl)cc1NC(=O)N(Cc1ccc(OC)cc1)C1CCN(C(C)=O)CC1	-14%	0%
O=C(NCc1ccccc1)c1cnc2sc(N3CCCC3)nn2c1=O	-6%	-6%
CC(C)CCNC(=O)NC(=O)COC(=O)C1=COCCO1	-10%	-13%
O=S(=O)(c1ccc(Cl)cc1)N1CCCCC1c1cccnc1 (stereo unspecified)	-10%	i
COc1ccc(Cl)cc1NC(=O)Cn1c(=O)n(Cc2nc(C)no2)c(=O)c2ccccc21	-4%	-11%
COc1ccc(NC(C)c2ccccc2)cc1 (stereo unspecified)	-13%	-14%
CC1Cc2cc(S(=O)(=O)CCC(=O)Nc3ccc(Cl)cc3F)ccc2N1C(=O)C1CC1 (stereo unspecified)	-25%	-23%
CCCc1c(C)c2cc(C)ccc2[nH]c1=O	-18%	?
O=S1(=O)CCN(CCCc2ccccc2)CC1	-15%	i
CCOc1ccc(S(=O)(=O)Nc2nccs2)cc1	-3%	-14%
CCc1cc(-c2cnnn2Cc2ccccc2)ccc1-c1cn(CC(C)C)nn1	?	-3%
O=C(Nc1cccc(C(F)(F)F)c1)c1ccc2c(c1)nnn2C1CCCC1	-13%	-16%
COC(=O)C(CC(C)C)N1CCC(=O)c2ccccc2S1(=O)=O (stereo unspecified)	-15%	-4%
CCc1ccc2[nH]c(=O)c(CN(CCCN3CCOCC3)C(=O)Nc3ccc(Cl)cc3)cc2c1	-28%	?
Cc1ccc(NCc2cccc(B(O)O)c2)cc1	-20%	?
Cc1ccc(Cl)cc1NC(=O)c1cc(-c2ccc3c(c2)OCCO3)on1	-10%	-4%
Nc1c(C(=O)Nc2ccc(F)cc2)sc(=S)n1-c1ccccc1F	-10%	-10%
CCc1noc(C)c1C(=O)N(CC)c1nc2c(C)cccc2s1	-9%	-11%
Cc1cccc(CS(=O)(=O)Cc2ccc(C(=O)NCc3cccnc3)o2)c1	-16%	-18%
CCOc1ccc(-c2cc3nc(C4CCN(C(=O)OC(C)(C)C)CC4)c(C(=O)Nc4cccc(C(F)(F)F)c4)cn3n2)cc1	11%	-8%
COC(=O)C1=C(c2ccc(F)cc2OCc2ccccc2)C[C@@H]2CC[C@H]1N2C(=O)NCCOc1ccccc1Cl	?	-29%
CC(Oc1ccc(Cl)cc1)c1ccnn1S(=O)(=O)c1ccc(Cl)cc1 (stereo unspecified)	-24%	-30%
O=C(NCCC1=CCCCC1)C1CCC(CNc2c(N3CCCC3)c(=O)c2=O)CC1 (stereo unspecified)	0%	6%
CCCOc1ccc(C(=O)NC(=S)NCc2cccnc2)cc1	-22%	-16%
O=C(O)C1CN(C(=O)c2ccccc2)c2cc(Cl)ccc2O1 (stereo unspecified)	-10%	-8%
COc1ccc(OC)c(NC(=O)c2cc(-c3cc(C)cc(C)c3O)n[nH]2)c1	-29%	?
COc1ccccc1-c1cc(C(=O)O)c2c(=O)n(C)c(=O)n(Cc3ccccc3)c2n1	6%	0%

The list goes on; it opens with the three that closed the last part.
SMILES	VACV Venus inh	Vaccinia mCherry
O=C(O)C1CN(C(=O)c2ccccc2)c2cc(Cl)ccc2O1 (stereo unspecified)	-10%	-8%
COc1ccc(OC)c(NC(=O)c2cc(-c3cc(C)cc(C)c3O)n[nH]2)c1	-29%	?
COc1ccccc1-c1cc(C(=O)O)c2c(=O)n(C)c(=O)n(Cc3ccccc3)c2n1	6%	0%
CC[n+]1ccc(C[n+]2ccccc2)c2ccccc21	-5%	i
CC1CC(C)(C)NC(=S)N1CCCC(=O)N1CCN(c2ccc(F)cc2)CC1 (stereo unspecified)	-15%	-8%
Cc1cccc(N)c1SC1CCCCC1O (stereo unspecified)	-8%	-13%
Cc1ccc(S(=O)(=O)C2(C(=O)Nc3ccc(C(C)C)cc3)CC2)cc1	0%&-6%	-3%&-14%
CN=Cc1c(NC)nc2c(C)cccn2c1=O	6%	/
CN(C)C(CNC(=O)CSc1nc2sc3c(c2c(=O)n1C)CCC3)c1ccccc1 (stereo unspecified)	-16%	-2%
O=C(CCNC(=O)c1ccco1)Nc1nc(-c2ccccc2)cs1	-12%	-1%
CSc1ccc(CN(C)C(=O)CN2C(=O)NC3(CCCC3)C2=O)cc1	-4%	-4%
COc1cc(Cl)cc(/C=C/c2ccc3cccc(O)c3n2)c1OC	15%	?
Cc1cccc(N(C)C(=O)c2coc(=O)c3ccccc23)c1	-14%	-20%
Nc1cc(=O)[nH]c(SCCSc2ccccc2F)n1	-8%	-20%
CCOC(=O)c1cnc2cc(C)ccn2c1=O	-2%	-6%
Cc1ccc(C)c(S(=O)(=O)NCc2ccc(C(=O)NCc3ccco3)cc2)c1	-20%	i
CNc1nc(Cl)c(SC)c(NCc2cccc(OC)c2)n1	-13%	i
O=C(COc1ccc(Cl)cc1Br)NC(=O)NC1CCCC1	-15%	i
CCc1nc2c(OCC(=O)c3ccc(Cl)cc3Cl)cccn2c1N(C)C(=O)COc1ccccc1	-18%	i
COc1cccc(C2C(C(=O)c3cc4cccc(OC)c4o3)=C(O)C(=O)N2c2cc(C)on2)c1OC (stereo unspecified)	-12%	/
O=C(c1cnc2n(c1=O)CCS2)N1CCCc2ccccc21	-13%	-13%
CC(=O)OC1CC2C(C)(C)C(O)CC[C@@]2(C)C2CC[C@@]3(C)C(c4ccoc4)OC(=O)C4O[C@@]43[C@]12C (stereo partly specified)	7%	-12%
O=[N+]([O-])c1cccc(-c2ccc(SCc3ccccn3)nn2)c1	-8%	-10%

Single values from the entries so far:
In Vaccinia mCherry, `Cc1cccc(N)c1SC1CCCCC1O` (stereo unspecified) is listed with -13%
In VACV Venus inh, `Nc1cc(=O)[nH]c(SCCSc2ccccc2F)n1` is listed with -8%
In VACV Venus inh, `CC[n+]1ccc(C[n+]2ccccc2)c2ccccc21` is listed with -5%
In Vaccinia mCherry, `CCOC(=O)c1cnc2cc(C)ccn2c1=O` is listed with -6%

(next part)
SMILES	VACV Venus inh	Vaccinia mCherry
CC1(C(=O)Nc2cccnc2)Cc2c(-c3cccc(C(F)(F)F)c3)ccnc2O1 (stereo unspecified)	-16%	i
COc1ccc(Cl)cc1-c1cc(C(=O)Nc2ccc(F)cc2)[nH]n1	?	-23%
CN(C)Cc1ccccc1COc1ccccc1	-7%	-8%
COc1cccc(OCCn2c(C)c(/C=N/n3cnnc3)c3ccccc32)c1	-4%	-14%
CCCC(=O)Nc1ccc2nc(SCC(=O)N3CCCC3)sc2c1	-6%	i
O=c1cc(NCc2ccccc2)nc2n1CCCS2	-11%	-15%
CCCC(=O)N1CCN(c2nc3c(OC)ccc(Cl)c3s2)CC1	-19%	-20%
O=[N+]([O-])c1cc(S(=O)(=O)N2CCCCCC2)ccc1F	14µM*	?
O=C(Nc1ccnn1C1CCN(C2CCCC2)CC1)c1ccccc1Cl	-9%	-17%
CC(C)(C)OC(=O)N1CCC(c2c(C(=O)N3CCN(c4ccccn4)CC3)cnn2-c2cccc(F)c2)CC1	-10%	-10%
CC(C)C(=O)NCC(c1ccc2c(c1)OCO2)N1CCN(c2ccccc2)CC1 (stereo unspecified)	2%	-3%
Cc1ccc(-n2nc(C)c3c(C(=O)O)cc(C)nc32)cc1	-5%	3%
O=C(CCN=C1NS(=O)(=O)c2ccccc21)OCc1nnc(-c2ccc([N+](=O)[O-])cc2)o1	-8%	-11%
Cc1cccc(NC(=O)CN(C)S(=O)(=O)c2ccc3c(c2)c(=O)n(C)c(=O)n3C)c1	-5%	2%
O=C(c1ccc(NC2=NC3CS(=O)(=O)CC3S2)cc1)N1CCN(c2ccc([N+](=O)[O-])cc2)CC1 (stereo unspecified)	-9%	-19%
COC(=O)C1=C(C)N=C2SC(C#N)=C(N)N2C1c1cccc(OC)c1 (stereo unspecified)	-24%	/
CC(=O)OC1C=CCC2C(=O)c3cccc(O)c3C(O)C12 (stereo unspecified)	1%	-5%
Nn1c(SCC(=O)Nc2nnc(-c3ccccc3)o2)nnc1C1CC1	6%	-8%
O=C(Nc1ccc(S(=O)(=O)NC2=NCCCCC2)cc1)c1ccco1	2%	-2%
O=C(O)COn1c(-c2ccc(Cl)cc2)nc2ccc(Cl)cc21	-11%	-13%

Quoted from the entries so far, two compounds:
SMILES	VACV Venus inh	Vaccinia mCherry
NNC(=O)c1ccncc1	?	-18%&-21%&-8%
CC(C)(C)C(=O)NC(CC(=O)O)c1ccccc1 (stereo unspecified)	-8%	i

Next section
SMILES	VACV Venus inh	Vaccinia mCherry
Cc1csc(NC(=O)CSc2nnc(-c3ccoc3C)n2C(C)c2ccccc2)n1 (stereo unspecified)	-11%	-12%
CCOC(=O)N1CCN(C(=S)NC(=O)c2cncc(Br)c2)CC1	-1%	-19%
O=C(C1=C[C@H](c2ccc(Br)cc2)C[C@H](OCc2ccc(CO)cc2)O1)N1CCOCC1	-15%	-12%
COCCC(=O)N(Cc1ccc2c(c1)OCO2)C(C(=O)NC1CCCCC1)c1ccncc1 (stereo unspecified)	-13%	-2%
COc1ccccc1N1CCN(C2C(=O)c3ccccc3N2C(C)=O)CC1 (stereo unspecified)	-9%	-9%
COc1ccc(NS(=O)(=O)c2cc(NC(=O)c3ccc(F)cc3)ccc2OC)cc1	-21%	-7%
O=C(COc1ccc(F)cc1)NNC(=O)c1cc2ccccc2oc1=O	-8%	-14%
O=C(N/N=C/c1cnc(N2CCCCC2)s1)c1ccc(C(F)(F)F)cc1	?	-29%
C#CCOCCOCCOCCNc1nc(N2CCN(C(=O)Cn3cc(CCCN=C(N)N)nn3)CC2)nc(N2CCN(C(=O)Cn3cc(CC(C)O)nn3)CC2)n1 (stereo unspecified)	-9%	i
